# Vaccinia inh = Vaccinia orthopox stage-specific inhibition; Vaccinia-infected cells, mCherry/Venus stage reporter fluorescence; active compounds read low; some inactives read as strong as hits; activity change (mCherry), % (no concentration beside the values); 89,000 tested, 0.01% active; AID 1053133;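 active = mCherry past -33% and 40 or more points under the early reporter, replicates agreeing; inconclusive = past -33% without that gap or agreement; tested in A549 cells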;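 also: scaled between vehicle wells and reference inhibitor wells; 23 nL library stock went into each well; one replicate is shown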
# Vaccinia inh Venus = further read-out of Vaccinia inh, marked with its call; activity change (Venus), %; measured here: Venus reporter, other viral stage;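 negative = less Venus signal; first of two replicates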
# Numbers without * were called inactive; ? = inconclusive; / = no result given; & = joins results of further samples.
SMILES	Vaccinia inh Venus	Vaccinia inh
O=C(Cc1cccnc1)N[C@H]1CC[C@@H](CCn2cc(-c3ccccc3F)nn2)O[C@H]1CO	1.5	0.2
Cc1noc(C)c1NC(=O)N(C)C[C@@H]1Oc2c(NC(=O)c3ccc(-c4nccs4)cc3)cccc2C(=O)N([C@H](C)CO)C[C@H]1C	9.5	0.7
Cc1noc(C)c1S(=O)(=O)Nc1ccc2c(c1)C(=O)N([C@H](C)CO)C[C@@H](C)[C@@H](CN(C)Cc1ccc(C(F)(F)F)cc1)OCCCC[C@@H](C)O2	/	?
COc1ccc(S(=O)(=O)N[C@H]2CC[C@H](CC(=O)N3CCc4ccccc4C3)O[C@H]2CO)cc1	-11.7	-17.0
O=C(C[C@@H]1C[C@@H]2c3cc(NS(=O)(=O)c4ccccc4)ccc3O[C@@H]2[C@H](CO)O1)N1CCOCC1	19.5	12.3
CC(C)(C)[S@](=O)N1Cc2cc(C(=O)NC3CCC3)nc(-c3cccc(Br)c3)c2[C@@H]1CCO	8.7	-24.3
COCC#Cc1ccc2c(c1)O[C@H](CN(C)C(C)=O)[C@H](C)CN([C@H](C)CO)S2(=O)=O	21.2	24.0
C[C@H]1CCCCO[C@H](CN(C)Cc2ccc(Cl)c(Cl)c2)[C@@H](C)CN([C@@H](C)CO)C(=O)c2cc(NC(=O)Nc3ccc(F)cc3)ccc2O1	-13.6	-25.4
CN(C)CC(=O)Nc1ccc2c(c1)[C@@H]1C[C@@H](CC(=O)NCCc3ccccc3)O[C@@H](CO)[C@@H]1O2	8.4	15.1
COc1ccc(S(=O)(=O)N(C)C[C@@H]2Oc3ccc(NS(=O)(=O)c4ccc(C)cc4)cc3C(=O)N([C@H](C)CO)C[C@@H]2C)cc1	-5.7	-5.8
C[C@H](CO)N1C[C@H](C)[C@H](CN(C)C(=O)c2ccncc2)Oc2ncc(/C=C/c3ccccc3)cc2C1=O	11.1	23.5
C[C@@H]1CN([C@H](C)CO)C(=O)c2cc(NS(=O)(=O)c3cn(C)cn3)ccc2O[C@@H]1CN(C)Cc1ccncc1	12.0	19.8
CCNC(=O)C[C@@H]1CC[C@@H]2[C@H](COC[C@@H](O)CN2C(=O)C2CC2)O1	7.6	10.1
Cc1noc(C)c1S(=O)(=O)N(C)C[C@@H]1OCCCC[C@@H](C)Oc2ccc(NC(=O)NC3CCCCC3)cc2C(=O)N([C@H](C)CO)C[C@@H]1C	6.7	13.9
CO[C@H]1CN(C)C(=O)c2ccc(NC(=O)Nc3ccccc3)cc2OC[C@@H](C)N(C(C)=O)C[C@H]1C	6.3	-0.3
CC(C)NC(=O)N(C)C[C@@H]1Oc2ncc(-c3ccccc3F)cc2C(=O)N([C@@H](C)CO)C[C@H]1C	2.9	7.6
O=C(NCc1ccccn1)[C@H]1[C@H](CO)[C@H]2Cn3c(cccc3=O)[C@@H]1N2CC1CCCCC1	1.0	2.2
COc1ccc(CN(C)C[C@H]2OCCCC[C@H](C)Oc3ccc(NS(=O)(=O)c4ccccc4)cc3C(=O)N([C@@H](C)CO)C[C@@H]2C)cc1	-27.4	-33.4
C[C@H](CO)N1C[C@H](C)[C@H](CN(C)C(=O)CC2CC2)Oc2ncc(C#CC3(O)CCCC3)cc2C1=O	8.7	9.8
C[C@@H]1CCCCO[C@@H](CN(C)C(=O)Nc2cccc3ccccc23)[C@H](C)CN([C@H](C)CO)C(=O)c2cc(NC(=O)Nc3ccc(F)cc3)ccc2O1	9.9	37.2
Cc1noc(C)c1S(=O)(=O)Nc1ccc2c(c1)C(=O)N([C@@H](C)CO)C[C@H](C)[C@H](CN(C)S(=O)(=O)c1ccccc1)OCCCC[C@@H](C)O2	-18.2	-24.6
CN(C)CC(=O)Nc1ccc2c(c1)[C@@H]1C[C@@H](CC(=O)N3CCc4ccccc4C3)O[C@@H](CO)[C@@H]1O2	1.2	-3.8
O=C(C[C@@H]1C=C[C@H](NS(=O)(=O)c2ccc(F)cc2)[C@@H](CO)O1)NC1CCCCC1	0.4	5.2
O=C(Cc1ccccn1)N1CC(=O)N2[C@H](CO)[C@@H](c3ccc(C#CCC4CCCC4)cc3)[C@@H]2C1	/	?
C[C@H]1CN([C@@H](C)CO)C(=O)c2cccc(NC(=O)Nc3cccc4ccccc34)c2O[C@H]1CN(C)Cc1ccc(Cl)c(Cl)c1	/	?
C[C@H](CO)N1C[C@H](C)[C@H](CN(C)Cc2ccccc2)Oc2c(NS(=O)(=O)c3ccc(F)cc3)cccc2C1=O	-5.8	-11.8
C[C@@H]1CN([C@H](C)CO)C(=O)c2cc(NC(=O)c3ccccc3)ccc2O[C@@H](C)CCCCO[C@H]1CN(C)Cc1ccc2c(c1)OCO2	/	?
CNC(=O)C[C@@H]1CC[C@@H]2[C@@H](COc3ccc(NC(=O)c4cccc(F)c4)cc3C(=O)N2C)O1	4.0&-8.1	4.3&-5.0
C[C@@H]1CCCCO[C@@H](CN(C)Cc2ccncc2)[C@@H](C)CN([C@H](C)CO)C(=O)c2cc(NC(=O)Nc3cccc4ccccc34)ccc2O1	4.9	12.7
Cc1noc(C)c1NC(=O)Nc1ccc2c(c1)C(=O)N([C@H](C)CO)C[C@H](C)[C@H](CN(C)Cc1ccncc1)OCCCC[C@@H](C)O2	8.3	24.1
C[C@@H]1CN([C@H](C)CO)C(=O)c2cc(-c3ccccc3)cnc2O[C@H]1CN(C)C	6.5	14.8
C[C@@H]1CCCCO[C@@H](CN(C)S(C)(=O)=O)[C@H](C)CN([C@H](C)CO)C(=O)c2cc(NC(=O)c3ccccc3)ccc2O1	-9.2	-4.7
C[C@@H]1CN([C@@H](C)CO)C(=O)Cc2cc(NC(=O)Nc3ccc(F)cc3)ccc2O[C@@H]1CN(C)S(=O)(=O)c1ccc(Cl)cc1	-14.6	-24.2
CO[C@H]1CN(C)C(=O)c2cc(NC(C)=O)ccc2OC[C@H](C)N(C(=O)C2CCOCC2)C[C@@H]1C	19.9	32.4
COCC#Cc1cnc2c(c1)C(=O)N([C@H](C)CO)C[C@H](C)[C@@H](CN(C)C(=O)Nc1cccc(F)c1)O2	23.3	22.4
COCC(=O)N1CC[C@H]2[C@H](CO)Nc3ccc(-c4ccc(C(=O)N(C)C)cc4)cc3[C@H]21	8.0	17.1
COc1ccc(CN(C)C[C@H]2OCCCC[C@H](C)Oc3ccc(NC(=O)Nc4ccc(OC)cc4)cc3C(=O)N([C@@H](C)CO)C[C@@H]2C)cc1	/	?
COc1cccc(C#Cc2ccc3c(c2)O[C@@H](CN(C)C(C)=O)[C@H](C)CN([C@@H](C)CO)S3(=O)=O)c1	/	?
O=C(NCC[C@H]1CC[C@@H](NS(=O)(=O)Cc2ccccc2)[C@H](CO)O1)C1CCOCC1	2.6	8.2
CC(C)NC(=O)N(C)C[C@H]1Oc2ncc(-c3cccc(C#N)c3)cc2C(=O)N([C@H](C)CO)C[C@H]1C	8.8	24.8
COc1ccccc1-c1ccc(C2[C@H]3CNC[C@@H]2N3S(=O)(=O)c2ccccc2C)cc1 (stereo partly specified)	-18.8&-19.5	-7.4&-11.2
CCC(=O)Nc1ccc2c(c1)C(=O)N(C)C[C@H](OC)[C@@H](C)CN(C(=O)Cc1cccnc1)[C@H](C)CO2	5.5	5.2
C[C@H]1CN([C@@H](C)CO)S(=O)(=O)c2ccc(C3=CCCCC3)cc2O[C@@H]1CN(C)C(=O)c1ccncc1	-5.4	-0.8
CC(C)NC(=O)N(C)C[C@@H]1OCCCC[C@H](C)Oc2ccc(NC(=O)C3CCCCC3)cc2C(=O)N([C@H](C)CO)C[C@@H]1C	1.0	21.9
CN1[C@@H]2c3ccc(-c4ccccc4F)c(=O)n3C[C@H]1[C@H](CO)[C@H]2C(=O)NCc1ccccn1	4.5	18.2
COc1ccc(CN(C)C[C@@H]2OCCCC[C@H](C)Oc3ccc(NS(=O)(=O)c4cccs4)cc3C(=O)N([C@H](C)CO)C[C@@H]2C)cc1	-35.1	-34.5
CCCC#Cc1cnc2c(c1)C(=O)N([C@H](C)CO)C[C@H](C)[C@H](CN(C)S(=O)(=O)c1cccc(OC)c1)O2	-19.6	-24.1
CCC(=O)N1CC[C@@H]2[C@H](CO)Nc3ccc(C#Cc4cccnc4)cc3[C@@H]21	12.4	20.1
O=C(Cc1ccccn1)NCC[C@H]1CC[C@@H](NS(=O)(=O)c2ccc(F)cc2)[C@H](CO)O1	-9.2	-15.3
C[C@H](CO)N1C[C@H](C)[C@H](CN(C)C(=O)Nc2ccc3c(c2)OCO3)Oc2ccc(N(C)C)cc2CC1=O	7.6	3.2

# The list goes on.
SMILES	Vaccinia inh Venus	Vaccinia inh
C[C@@H]1CN([C@H](C)CO)C(=O)CCCn2nncc2CO[C@@H]1CN(C)Cc1ccccc1	9.8	6.0
CO[C@@H]1CN(C)C(=O)c2ccc(NC(=O)CC(F)(F)F)cc2OC[C@H](C)N(C(=O)c2ccccc2F)C[C@H]1C	16.3	7.5
O=C(c1cnccn1)N1CC(=O)N2[C@@H](CO)[C@H](c3ccc(-c4ccccc4)cc3)[C@@H]2C1	7.3	18.1
OC[C@@H]1[C@@H](c2ccccc2)C2(CN(Cc3ccc4c(c3)OCO4)C2)N1Cc1ccccc1	/	?
Cc1ccc(-c2ccc3c(c2)O[C@@H](CN(C)Cc2ccncc2)[C@H](C)CN([C@H](C)CO)S3(=O)=O)cc1	/	?
C[C@H]1CN([C@@H](C)CO)C(=O)Cc2cc(NC(=O)Nc3cccc4ccccc34)ccc2O[C@@H]1CN(C)C(=O)NC1CCCCC1	10.9	16.3
C[C@@H]1CCCCO[C@@H](CN(C)C(=O)Cc2ccccc2)[C@H](C)CN([C@H](C)CO)C(=O)c2cc(NS(=O)(=O)c3ccccc3)ccc2O1	/	?
COc1ccc(NC(=O)N(C)C[C@@H]2Oc3ccc(NS(=O)(=O)c4c(C)noc4C)cc3CC(=O)N([C@H](C)CO)C[C@@H]2C)cc1	-9.4	-7.3
CC(=O)N[C@H]1C=C[C@@H](CC(=O)NCC2CCCCC2)O[C@@H]1CO	0.0	-1.2
C[C@H]1CN([C@@H](C)CO)C(=O)Cc2cc(N(C)C)ccc2O[C@@H]1CN(C)Cc1ccc(C(=O)Nc2ccccc2N)cc1	-16.7	-23.0
O=C(Nc1ccc2c(c1)[C@H]1C[C@@H](CC(=O)N3CCCCC3)O[C@H](CO)[C@H]1O2)C1CCC1	3.0	-3.5
CCCNC(=O)N1C[C@@H](C)[C@@H](OC)CN(C)C(=O)c2cc(NS(=O)(=O)CC(F)(F)F)ccc2OC[C@H]1C	5.6	7.7
C[C@H](CO)N1C[C@H](C)[C@@H](CN(C)C(=O)Nc2cccc3ccccc23)Oc2ccc(NC(=O)c3ccncc3)cc2C1=O	6.6	10.5
COc1ccc(CN(C)C[C@@H]2Oc3c(NC(=O)Nc4ccc(F)cc4)cccc3C(=O)N([C@@H](C)CO)C[C@@H]2C)cc1	/	?
C[C@H](CO)N1C[C@H](C)[C@@H](CN(C)Cc2ccc(C(=O)Nc3ccccc3N)cc2)Oc2ccc(NC(=O)Cc3ccccc3)cc2CC1=O	-9.5	-3.3
NCC[C@H]1CC[C@@H](NC(=O)NC2CCCCC2)[C@H](CO)O1	14.0	12.5
COc1ccccc1NC(=O)N[C@@H]1CC[C@@H](CCNS(=O)(=O)c2ccc(F)cc2)O[C@H]1CO	-2.6	-12.2
Cc1ccc(S(=O)(=O)N(C)C[C@@H]2Oc3ccc(NC(=O)CCCCCC(=O)Nc4ccccc4N)cc3CC(=O)N([C@@H](C)CO)C[C@@H]2C)cc1	7.4	8.0
OC[C@H]1[C@@H](c2ccc(-c3ccc(F)cc3)cc2)[C@H]2CN(Cc3cccnc3)CCCCN21	-13.9	-12.4
C[C@H]1CN([C@@H](C)CO)C(=O)c2cccc(NC(=O)Nc3ccc4c(c3)OCO4)c2O[C@@H]1CN(C)Cc1ccc(C(=O)O)cc1	10.7	15.1
O=C(C[C@H]1C=C[C@@H](NC(=O)C2CCC2)[C@H](CO)O1)NC1CCCCC1	11.9	9.5
CC(C)(C)[S@@](=O)N1Cc2cc(C(=O)NCCN3CCCCC3)nc(-c3cccc(-c4ccc(C#N)cc4)c3)c2[C@H]1CCO	/	?
CN(C)CC(=O)N1[C@H](C#N)[C@@H](c2ccc(-c3ccc(C(=O)N(C)C)cc3)cc2)[C@@H]1CO	-2.3	17.0
C[C@@H]1CN([C@@H](C)CO)C(=O)c2cc(NS(=O)(=O)c3cn(C)cn3)ccc2O[C@H]1CN(C)Cc1ccccc1	15.9	11.0
Cc1ccc(-c2ccc3c(c2)O[C@@H](CN(C)C(=O)CC2CC2)[C@@H](C)CN([C@@H](C)CO)S3(=O)=O)cc1	/	?
C[C@@H]1CN([C@H](C)CO)C(=O)c2cccc(NS(=O)(=O)c3cn(C)cn3)c2O[C@H]1CN(C)Cc1ccc2c(c1)OCO2	4.0	15.3
C[C@H]1CN([C@@H](C)CO)C(=O)c2cc(NS(=O)(=O)c3cccs3)ccc2O[C@H]1CN(C)Cc1ccc(Cl)c(Cl)c1	-14.0	-21.5

# Record cards (already shown):
# `CN(C)CC(=O)N1[C@H](C#N)[C@@H](c2ccc(-c3ccc(C(=O)N(C)C)cc3)cc2)[C@@H]1CO` as listed: Vaccinia inh Venus: -2.3; Vaccinia inh: 17.0
# `O=C(C[C@H]1C=C[C@@H](NC(=O)C2CCC2)[C@H](CO)O1)NC1CCCCC1` as listed: Vaccinia inh Venus: 11.9; Vaccinia inh: 9.5

# Screens from PubChem.

# Not all compounds are listed. The share of hits here may be higher or lower than overall.
